Assay outcomes deposited in PubChem by Johns Hopkins Ion Channel Center.
KCNQ2 enhance: enhances the rat KCNQ2 potassium channel | CHO-K1 KCNQ2, FluxOR thallium flux fluorescence; active compounds read high | B-score at 10 µM | actives 0.54% (n = 310,000);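 active means fluorescence ratio B-score at least 3 SD of library B-scores, with initial fluorescence B-score within 3 SD, cut at about 5.3 in these data; same plate scores as AID 2156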;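 further: B-score of peak minus minimum over baseline fluorescence ratio after K+ and Tl+ stimulus; positive B-score means potentiation of KCNQ2 with more thallium influx and brighter signal; only the inactives scoring about 0 or higher are listed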
Target sequence (O88943 whole entry, looked up): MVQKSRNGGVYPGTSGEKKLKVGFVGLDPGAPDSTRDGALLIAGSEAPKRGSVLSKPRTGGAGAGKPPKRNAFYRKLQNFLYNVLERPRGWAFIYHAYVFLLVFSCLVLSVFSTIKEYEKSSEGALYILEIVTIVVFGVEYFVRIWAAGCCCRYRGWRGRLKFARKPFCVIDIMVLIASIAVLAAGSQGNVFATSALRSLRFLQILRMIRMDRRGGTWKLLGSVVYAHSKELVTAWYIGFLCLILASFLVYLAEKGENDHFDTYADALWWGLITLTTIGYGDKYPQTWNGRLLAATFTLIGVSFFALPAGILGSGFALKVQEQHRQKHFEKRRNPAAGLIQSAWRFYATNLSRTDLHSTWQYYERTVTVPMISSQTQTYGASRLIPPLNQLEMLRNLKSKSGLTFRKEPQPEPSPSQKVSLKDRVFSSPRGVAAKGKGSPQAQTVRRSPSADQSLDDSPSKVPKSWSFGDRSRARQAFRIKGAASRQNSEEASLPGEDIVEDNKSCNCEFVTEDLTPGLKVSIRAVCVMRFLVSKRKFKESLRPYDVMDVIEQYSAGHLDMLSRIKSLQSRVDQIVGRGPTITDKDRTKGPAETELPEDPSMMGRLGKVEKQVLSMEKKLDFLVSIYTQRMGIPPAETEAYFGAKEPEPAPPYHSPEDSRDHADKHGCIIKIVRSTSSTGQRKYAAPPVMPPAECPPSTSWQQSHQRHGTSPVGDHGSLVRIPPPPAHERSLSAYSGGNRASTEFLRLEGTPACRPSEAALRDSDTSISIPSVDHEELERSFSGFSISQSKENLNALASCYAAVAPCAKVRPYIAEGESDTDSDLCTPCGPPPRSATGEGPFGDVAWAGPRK
KCNQ2 enhance baseline: also measured in KCNQ2 enhance; calls as there; B-score; compound at 10 µM; measured here: initial fluorescence intensity artifact check;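 brightness before thallium and not channel activity; 0 = typical well and far values either way flag optical interference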
Active calls of the source: *. Some of the compounds tested; the hit share may differ from the screen's.

SMILES | KCNQ2 enhance | KCNQ2 enhance baseline
O=C(NCC(=O)N(c1ccccc1)C(C(=O)NC1CCCCC1)c1ccncc1)c1ccco1 (stereo not given) | 1.4 | -0.86
CNC(=O)C1(CC(C)C)C=CCN1C(C)=O (stereo not given) | 0.26 | 0.37
CCCN(C(=O)C1=COCCO1)c1c(N)n(Cc2ccccc2)c(=O)[nH]c1=O | 1 | -0.98
O=C(N/N=C/c1cccnc1)c1cccc(S(=O)(=O)Nc2cccc(Cl)c2)c1 | 0.27 | -2.3
CC(C)C(C)NC(=O)COC(=O)/C=C/c1ccc(S(=O)(=O)N2CCc3ccccc32)cc1 (stereo not given) | 0.14 | -1.3
O=C(CCCOc1ccccc1)Nc1ccc2c(c1)OCCO2 | 0.27 | -0.53
COc1ccc(-c2cc(-c3ccccc3)nc(=O)[nH]2)cc1 | 1.4 | 1.1
CCN(C(=O)COC(=O)/C=C/c1ccc(O)c(OC)c1)C1CCS(=O)(=O)C1 (stereo not given) | 2.6 | 1.6
CCN(CCCNC(=O)CCn1c(=O)[nH]c2ccccc2c1=O)c1cccc(C)c1 | 0.35 | -0.97
COc1ccc(-n2nc3cc(C)c(NC(=O)CC(C)C)cc3n2)cc1 | 1.2 | -2.2
COc1ccc(CCn2c(=N)c(C(=O)NCCN3CCOCC3)cc3c(=O)n4cccc(C)c4nc32)cc1OC | 0.58 | -0.51
O=C(COc1ccc(-n2cnnn2)cc1)Nc1cccc(Cl)c1Cl | 1.9 | 0.16
O=S1(=O)CC(O)C(NCc2cccnc2)C1 (stereo not given) | 0.71 | -0.03
COCCCNC(=O)c1c[nH]c2ccc(S(=O)(=O)N3CCC4(CC3)OCCO4)cc2c1=O | 1.4 | -1.5
CCn1ncc(C2C(C(=O)Nc3ccc(C)cn3)=C(C)NC3=C2C(=O)CCC3)c1C (stereo not given) | 1.9 | -0.68
COc1ccc(OC)c(S(=O)(=O)NC(C)(C)C)c1 | 1.2 | -2.1
CC1CCC(NC(=O)C2CCN(S(=O)(=O)c3ccc4nc5c(c(C(=O)O)c4c3)CC(C)CC5)CC2)CC1 (stereo not given) | 1.7 | -0.7
O=C(Nc1ccccc1Cc1ccccc1)c1ccncc1 | 1.2 | 0.18
CC1Cc2ccccc2N1C(=O)CSc1nnc(C2CC2)n1C (stereo not given) | 0.02 | -1.2
COc1cccc(N=c2oc3c(C)ncc(CO)c3cc2C(=O)Nc2ccccc2OC)c1 | 0.35 | -0.96
COc1ccccc1NC(=O)CSc1nc2[nH]ncc2c(=O)[nH]1 | 0.67 | -0.73
O=C(CN1CCOCC1)Nc1c(-c2ccccc2)c2cc(Br)ccc2[nH]c1=O | 1.9 | 1.6
CCCCN(C)C(=O)c1cc2cc3ccc(OC)cc3nc2o1 | 1.6 | 0.08
O=C(CN1C(=O)S/C(=C/C=C/c2ccccc2)C1=O)Nc1ccc(C(=O)O)cc1 | 0.33 | 2
CC1Oc2ccccc2N(CC(=O)N2CCc3ccccc32)C1=O (stereo not given) | 0.72 | 0.26
COc1ccc(C(=O)n2nc(C)cc2C)cc1Br | 0.63 | -0.23
COc1cc(C2N(C)C(=O)c3ccccc3N2C)ccc1O (stereo not given) | 0.7 | -0.02
Cc1ccc(S(=O)(=O)NNC(=O)CCCCC(=O)NNS(=O)(=O)c2ccc(C)cc2)cc1 | 0.48 | -1
COc1ccc(C(=O)N/C(=C\c2cn(S(=O)(=O)N(C)C)c3ccccc23)C(=O)NCCN2CCOCC2)cc1OC | 1.1 | 0.1
O=C(CNC(=O)c1ccc2c(c1)OCO2)N/N=C/c1cccc([N+](=O)[O-])c1 | 0.43 | -0.14
O=C(CSc1nnc(-c2ccccc2F)n1C1CC1)Nc1cccnc1Cl | 0.01 | 0.03
N#CCSc1nnc(-c2ccc(F)cc2)n1N | 0.02 | -1
N=c1ccn(Cc2ccc(Cl)c(Cl)c2)cc1 | 0.52 | -0.01
CCOC(=O)C(NC(C)=O)C(=O)Nc1c(C)cccc1C (stereo not given) | 1.9 | 0.01
O=C(Cc1ccccc1)N/N=C/c1cccnc1 | 1.9 | -0.72
CC1(OC(=O)CCc2ccccc2)C(=O)C=C2C=C(c3ccc(C#N)cc3)N(CCc3ccccn3)C=C2C1=O (stereo not given) | 0.74 | -0.35
CCOc1ccc(OCCNCc2ccc(OC(C)C(=O)N(C)C)c(OCC)c2)cc1 (stereo not given) | 1.3 | -0.54
C=CCn1c(=NC(=O)C2CCCCC2)sc2cc(NC(C)=O)ccc21 | 0.12 | 1.2
Cc1onc(-c2ccccc2)c1C(=O)N/N=C/c1ccco1 | 0.2 | -0.55
Cc1csc(SCC(=O)NC2CCC(C)CC2)n1 (stereo not given) | 4.1 | 1.6

Rewritten with the structure last: part of the list above.
KCNQ2 enhance	KCNQ2 enhance baseline	Compound
0.52	-0.01	N=c1ccn(Cc2ccc(Cl)c(Cl)c2)cc1
1.9	0.01	CCOC(=O)C(NC(C)=O)C(=O)Nc1c(C)cccc1C (stereo not given)
1.9	-0.72	O=C(Cc1ccccc1)N/N=C/c1cccnc1
0.74	-0.35	CC1(OC(=O)CCc2ccccc2)C(=O)C=C2C=C(c3ccc(C#N)cc3)N(CCc3ccccn3)C=C2C1=O (stereo not given)
1.3	-0.54	CCOc1ccc(OCCNCc2ccc(OC(C)C(=O)N(C)C)c(OCC)c2)cc1 (stereo not given)
0.12	1.2	C=CCn1c(=NC(=O)C2CCCCC2)sc2cc(NC(C)=O)ccc21

Following part.
SMILES | KCNQ2 enhance | KCNQ2 enhance baseline
Cc1c(Cl)cccc1NC(=O)C1CCCN(S(C)(=O)=O)C1 (stereo not given) | 0.02 | -0.04
Cc1cccc(Oc2nc3ccccn3c(=O)c2/C=C(\C#N)C(=O)NC2CCS(=O)(=O)C2)c1 (stereo not given) | 0.41 | 0.9
COC(=O)C1CCN(C(=O)c2ccc(SC)cc2OC)CC1 | 0.43 | 0.43
COc1ccc(C(=O)NN)cc1 | 0.92 | 0
COc1cc(/C=C2/C(=O)CNC2=O)ccc1O | 1.5 | 0.32
Cc1ccc(S(=O)(=O)N2CC(=O)NC(=O)C2)cc1 | 0.27 | -0.37
CC(C)Cn1c(N)c(-c2nc(C(C)C)c(C(=O)c3ccccc3F)s2)c(=O)n(C)c1=O | 3.1 | -0.34
COc1ccccc1NC(=O)CN1CCC(n2nnc3cc(F)ccc32)CC1 | 0.04 | -0.64
Cc1cc(-n2c(C)cc(C(=O)CCl)c2C)no1 | 0.13 | 1.4
CC(C)CN1CCC(C(=O)NCC2CCCO2)CC1 (stereo not given) | 0.04 | -0.52
CN(C)[C@@H](CO)c1nnc([C@H](Cc2ccc(O)cc2)NC(=O)C2CCNCC2)o1 | 1.3 | -2.5
CCOCc1nnc(NC(=O)CSCc2ccccc2)s1 | 0.02 | 0.43
Cn1cnc2c1c(=O)n(Cc1ccc(Cl)cc1Cl)c(=O)n2C | 0.83 | -0.69
CC(=O)c1ccc(Nc2nc(=O)c3cccnc3s2)cc1 | 1.2 | -1.6
CCc1c(C)sc(NC(=O)c2noc(C)c2[N+](=O)[O-])c1C#N | 2.1 | -1.3
Nc1ccc(C#Cc2ccc3c(=O)c4ccccc4oc3c2)cc1 | 1.2 | -0.18
COc1ccc(Cc2nnc(N)s2)cc1OC | 0.29 | 0.05
COc1ccccc1C(NC(C)=O)c1cc(Cl)c2cccnc2c1O (stereo not given) | 0.85 | 0.44
NC(=O)C(c1ncc(C(F)(F)F)cc1Cl)c1c(Cl)cccc1Cl (stereo not given) | 1.8 | -0.31
O=C(O)CCCNS(=O)(=O)c1ccc(Br)s1 | 1.1 | -0.82

Overlap with the part before: four compounds; new compounds follow.
SMILES | KCNQ2 enhance | KCNQ2 enhance baseline
COc1ccc(Cc2nnc(N)s2)cc1OC | 0.29 | 0.05
COc1ccccc1C(NC(C)=O)c1cc(Cl)c2cccnc2c1O (stereo not given) | 0.85 | 0.44
NC(=O)C(c1ncc(C(F)(F)F)cc1Cl)c1c(Cl)cccc1Cl (stereo not given) | 1.8 | -0.31
O=C(O)CCCNS(=O)(=O)c1ccc(Br)s1 | 1.1 | -0.82
CN(C)N1C(N)=C(C#N)C(c2cccnc2)C2=C1CC(C)(C)CC2=O (stereo not given) | 0.12 | -0.92
O=C(Nc1ccc(Cl)c(Cl)c1)C1CCN(C(=O)c2ccco2)CC1 | 0.19 | 0.03
O=C(CCC1CCCC1)NNC(=O)c1cc2ccccc2cc1O | 1.3 | 0.7
O=C(CCN1CCOCC1)Nc1ccc(F)cc1 | 0.49 | 0.72
Cn1cnc2c1c(=O)[nH]c(=O)n2C | 0.06 | -0.51
Cc1cccc(NC(=O)CCOc2ccccc2)c1 | 1.3 | -1
Cc1nc2ccccc2nc1N/N=C/c1ccc(O)cc1 | 2.1 | -0.14
Cc1cc(C)n2c(nc3ccccc32)c1C(=O)NCc1ccccc1 | 1.2 | -1.2
Cc1cc2ccccn2c1C(=O)c1ccc([N+](=O)[O-])o1 | 1.4 | -0.14
COc1ccc(C)cc1S(=O)(=O)NC1CCCC1 | 1.1 | -0.92
COc1cc2c(cc1NC(=O)/C=C/c1ccc([N+](=O)[O-])cc1)oc1ccccc12 | 5.6* | -2*
N=C(N)n1c(N)nc2ccccc2c1=O | 1.4 | -3.2
CCCC1CCc2c(sc(NC(=O)c3cccs3)c2C(N)=O)C1 (stereo not given) | 0.94 | -0.53
O=c1ccccn1Cc1c(Cl)cccc1Cl | 0.83 | 0.42
O=C(NCc1ccccc1)NS(=O)(=O)c1ccccc1Cl | 0.93 | -0.36
C=CCN1C=C2C(=O)C(C)(OC(=O)c3cccs3)C(=O)C=C2C=C1CCCC(=O)OC (stereo not given) | 0.35 | 0.28
CCOC(=O)C1=C(COC(=O)/C=C/c2ccc(OC)c(OC)c2)NC(=O)NC1C (stereo not given) | 3.4 | -1.4
Cn1c(-c2ccccc2)cnc1NCc1cc2c(cc1[N+](=O)[O-])OCO2 | 1.8 | -0.87
COc1ccc(C2c3[nH]c4ccccc4c3C[C@H]3C(=O)N(CC(C)C)CC(=O)N23)c(OC)c1 (stereo not given in full) | 1 | 0.01
Nc1nc(Nc2ccccc2Br)nc(C(F)(F)F)n1 | 0.13 | -0.61
CCc1cc(C(=O)Cc2nc3ccccc3[nH]2)c(O)cc1O | 0.39 | -0.64
CCCCOC(=O)CSC1=C(C#N)C(c2ccccc2OCC)C(C#N)C(=O)N1 (stereo not given) | 7.1* | 2.1*
CCOc1ccc(NC(=O)Nc2cc(C)on2)cc1 | 2.2 | 0.57
O=C(COc1coc(CN2CCCc3ccccc32)cc1=O)Nc1ccccc1 | 0.58 | -0.05
CCCCSc1nnc(CSc2ncccn2)n1C | 1.7 | -0.23
COC(=O)c1cnc[nH]1 | 1.4 | -2.1
COc1ccc(CNS(=O)(=O)c2ccc3oc(C(=O)O)c(C)c3c2)cc1 | 0.45 | -0.14
CSc1ccccc1NC(=O)C1CCCN(S(C)(=O)=O)C1 (stereo not given) | 0.55 | 1.2
COc1cccc(N(C(=O)Cn2nnc(-c3ccc(F)cc3)n2)C(C(=O)NCC2CCCO2)c2ccc(Cl)cc2)c1 (stereo not given) | 0.02 | 0.78
CCOC(=O)Cc1csc(NC(=O)CSc2nc(-c3ccccc3)c(C#N)c(=O)[nH]2)n1 | 0.51 | 1.4
CC(c1ccco1)N(C(=O)c1cccc(Br)c1)c1ccccn1 (stereo not given) | 0.03 | -0.32
CCc1ccc(Nc2nc3ccccc3c(=O)s2)cc1 | 0.84 | 0.01
CC[C@H](C)[C@H](NC(N)=O)C(=O)NCCc1ccc(Cl)cc1Cl | 0.93 | 1.2
COc1ccc2c(c1)C(NS(=O)(=O)OCC(Cl)(Cl)Cl)CCC2 (stereo not given) | 1 | 1.6
c1ccc(-c2ccccc2OCCCN2CCOCC2)cc1 | 0.48 | -0.01
Cc1ccccc1-c1n[nH]c(=S)n1C | 0.82 | -0.8
O=C(c1ccc(CS(=O)(=O)c2ccc(Br)cc2)o1)N1CCN(c2ccccn2)CC1 | 0.02 | -0.51
COc1ccc(-c2csc(NC(=O)c3ccc(N4C(=O)CCC4=O)cc3)n2)cc1OC | 0.44 | 0.63
O=C(NC1=NCCS1)c1ccc(Cl)c(S(=O)(=O)N2CCOCC2)c1 | 0.98 | -0.8
C/C(N)=C(/C#N)C(=O)COC(=O)c1ccc(O)cc1 | 0.09 | -0.01
COc1c(C)cc(C(=O)C2CCCN(C(=O)c3cc(C)n(C)n3)C2)cc1C (stereo not given) | 1.8 | -0.35
c1ccc(OCCCn2nnc(-c3ccc(N4CCOCC4)cc3)n2)cc1 | 0.71 | -1.7
COc1ccc(Nc2ccc(Cl)cc2)c(C(=O)O)c1 | 0.94 | 2.3
Cc1c(NC(=O)c2cc3nc(-c4ccc(Cl)cc4)cc(C(F)(F)F)n3n2)c(=O)n(-c2ccccc2)n1C | 0.89 | -0.02
O=S(=O)(c1ccc(Nc2ccc3c(c2)OCO3)nc1)N1CCOCC1 | 1.4 | -0.35
O=C(Nc1ccccc1)Nc1cccc(Cl)c1Cl | 1.9 | -1.2
CCSc1nc2ccccc2n1CC(=O)OC | 1.1 | 2.7
Cc1nnc(Nc2ccc(Cl)cc2)n(N)c1=O | 0.98 | 1.8
CCOc1ccc(NC(=O)Nc2nnc(CC)s2)cc1 | 0.98 | -2
COc1ccccc1CC(=O)Nc1cccc(F)c1 | 2.2 | -1.7
Cc1ccc(C2=NC3(CCCCCC3)NC2=S)cc1 | 1.2 | -0.04

5 entries drawn at random from the list so far:
SMILES | KCNQ2 enhance | KCNQ2 enhance baseline
COc1ccc(OC)c(S(=O)(=O)NC(C)(C)C)c1 | 1.2 | -2.1
CC(c1ccco1)N(C(=O)c1cccc(Br)c1)c1ccccn1 (stereo not given) | 0.03 | -0.32
O=C(CCCOc1ccccc1)Nc1ccc2c(c1)OCCO2 | 0.27 | -0.53
CC1Oc2ccccc2N(CC(=O)N2CCc3ccccc32)C1=O (stereo not given) | 0.72 | 0.26
O=C(CCC1CCCC1)NNC(=O)c1cc2ccccc2cc1O | 1.3 | 0.7
